2A StopGo – High Throughput Screening for Foot and Mouth Disease Virus Antivirals; actives 1.2% (n = 410,000); Potency, µM (doses to about 57.9 µM), inactives show at the highest dose signal change, negative = less light; human cells with a luciferase reporter of 2A StopGo recoding; control for the full effect not named in the record; active = well fitted falling curve with a large enough effect; inconclusive = small, poorly fitted or top-dose-only effect; inactive = no such curve, though single readings can be large or run the other way; tested in HEK293T cells; also: % is scaled to controls: 0 for no effect and ±100 for the full control effect; nearly all actives have a fitted effect of over 45% in size; luciferase light after 4 h
NS1 function inh – qHTS Assay for Inhibitors of Influenza NS1 Protein Function | actives 0.4% (n = 270,000) | S. cerevisiae slowed by influenza A NS1, growth recovery by OD600 | Potency, µM (highest dose often 46.1 µM), for the others: at the top dose activity, positive = more growth; active means well fitted rising curve with a large enough effect; inconclusive means small, poorly fitted or top-dose-only effect; inactive means no such curve, though single readings can be large or run the other way; also: nearly all actives have a fitted effect of over 50% in size
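Recovery from NS1-induced slow growth read by OD600 in budding yeast switched to galactose assay medium (pH 6.0, -URA) at 1:100 dilution. Compound 23 nl per well; the matching strain lacking NS1 serves as control.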
Marburg entry inh – qHTS for inhibitors of binding or entry into cells for Marburg Virus; Marburg virus pseudotyped entry inhibition, cell reporter; control for the full effect not named in the record; about a third of the inactives were read at about 46 µM; Potency, µM (top dose mostly 37.8 µM), inactives show at the top dose activity change, negative = inhibition, most hits filed as inhibitors; actives 1.8% (n = 300,000); AID 540276, 2011; active = well fitted inhibition curve with a large enough effect; inconclusive = small, poorly fitted or top-dose-only effect, or effect the other way; inactive = flat fitted curve, though single readings scatter; tested in HEK293 cells; about a fifth of its hits are not listed in these tables; also: % is scaled to controls: 0 for no effect and ±100 for the full control effect; luciferase read-out
Lassa entry inh – qHTS for Inhibitors of binding or entry into cells for Lassa Virus; Lassa virus pseudotype entry inhibition, cell reporter; control for the full effect not named in the record; Potency, µM (highest dose often 37.9 µM), without a hit: top-dose activity change, negative = inhibition, hits mostly inhibitors; actives 1.2% (n = 300,000); active means well fitted inhibition curve with a large enough effect; inconclusive means small, poorly fitted or top-dose-only effect, or effect the other way; inactive means flat fitted curve, though single readings scatter; tested in HEK293 cells; also: % is scaled to controls: 0 for no effect and ±100 for the full control effect; nearly all actives have a fitted effect of over 50% in size; luciferase read-out
Cruzain Triton – qHTS Assay for Promiscuous and Specific Inhibitors of Cruzain (with detergent). Cruzipain (Trypanosoma cruzi), P25779. purified cruzain, Z-FR-AMC fluorescence, 0.01% Triton. Potency, µM, without a hit: max response, negative = inhibition, hits mostly inhibitors. actives 0.43% (n = 200,000). AID 1478, 2009;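 also: plate controls were neutral wells for no effect and buffer without enzyme for full effect; nearly all actives have a fitted effect of over 40% in size; top concentration of the series not given in the record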
Target sequence (P25779 123-467 limits assumed): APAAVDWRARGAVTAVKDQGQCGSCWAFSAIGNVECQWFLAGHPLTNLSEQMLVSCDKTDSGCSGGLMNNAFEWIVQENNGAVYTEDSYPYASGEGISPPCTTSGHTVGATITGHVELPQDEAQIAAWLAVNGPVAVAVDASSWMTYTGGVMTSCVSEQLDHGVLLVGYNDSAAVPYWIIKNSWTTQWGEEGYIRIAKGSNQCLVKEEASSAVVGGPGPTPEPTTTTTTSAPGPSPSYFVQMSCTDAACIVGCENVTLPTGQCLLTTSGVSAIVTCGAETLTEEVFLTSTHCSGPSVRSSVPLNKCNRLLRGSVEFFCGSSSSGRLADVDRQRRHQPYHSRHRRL
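Detergent-containing arm of a paired screen for aggregation-based inhibition: 0.01% Triton X-100 present. Cruzain at 1.5 nM cleaved 2 uM Z-FR-AMC at pH 5.5 with 5 mM DTT; AMC fluorescence gain over 60 s measured activity.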
Cruzain noTriton – qHTS Assay for Promiscuous and Specific Inhibitors of Cruzain (without detergent). actives 2.3% (n = 200,000). purified cruzain, Z-FR-AMC fluorescence, no detergent. Potency, µM, inactives show max response, negative = inhibition, hits mostly inhibitors. Cruzipain (Trypanosoma cruzi), P25779;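 also: plate controls were enzyme without inhibitor for no effect and buffer without enzyme for full effect; nearly all actives have a fitted effect of over 40% in size; top concentration of the series not given in the record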
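Purified cruzain at 1.5 nM, pre-incubated 15 min with compound at room temperature in 100 mM sodium acetate pH 5.5, 5 mM DTT, 0.00005% Triton X-100. Reaction started with 2 uM Z-FR-AMC; AMC fluorescence increase over 60 s gives rate.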
RE007 growth inh – qHTS Assay for Inhibitors of the HIV-1 protein Vpr; actives 0.21% (n = 360,000); Potency, µM (top dose mostly 92.2 µM), inactives show at the top dose activity change, negative = less growth; S. pombe RE007 Vpr strain, BacTiter-Glo ATP luminescence, 24 h; control for the full effect not named in the record; active = well fitted falling curve with a large enough effect; inconclusive = small, poorly fitted or top-dose-only effect; inactive = no such curve, though single readings can be large or run the other way;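 also: % is scaled to controls: 0 for no effect and ±100 for the full control effect; nearly all actives have a fitted effect of over 50% in size; the assay follows cell death caused by Vpr and the record does not say whether a fall means rescue or toxicity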
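Fission yeast RE007 carrying one integrated HIV-1 vpr copy, seeded at OD 0.01 in PMG+AL medium with 23 nL pinned compound. Grown 24 h at 30 degrees; viability read by BacTiter-Glo luminescence after 5 min.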
SARS PLP yeast – qHTS of Yeast-based Assay for SARS-CoV PLP; S. cerevisiae expressing SARS-CoV PLpro, growth rescue; control for the full effect not named in the record; Potency, µM (highest dose often 32.9 µM), for the others: at the highest dose activity, positive = growth rescue; actives 0.19% (n = 330,000); active means well fitted rising curve with a large enough effect; inconclusive means small, poorly fitted or top-dose-only effect; inactive means no such curve, though single readings can be large or run the other way; also: 0% is about no effect; nearly all actives have a fitted effect of over 55% in size; growth read by luminescence after 48 h
* marks the source's active call; other numbers are inactive results; ? = inconclusive; . = not tested or not shown; [ ] = remark or other dose. Unless noted, calls follow the shape of the dose curve; as a rule, active = well fitted curve in the direction sought with a large enough effect; inconclusive = small, poorly fitted or top-dose-only effect, or another doubt; inactive = no such curve, though single readings can be large; an effect the other way counts as inactive or inconclusive. Potency is read from the fitted curve at half-maximal effect.

#	Structure	2A StopGo	NS1 function inh	Marburg entry inh	Lassa entry inh	Cruzain Triton	Cruzain noTriton	RE007 growth inh	SARS PLP yeast
1	O=C(Cn1c(=O)n(-c2ccccc2)c(=O)c2sccc21)N1CCCC1	13.1%	5.0%	6.9%	0.4%	0.0%	5.3%	-4.4%	8.3%
2	COc1ccc([N+](=O)[O-])cc1NC(=O)C(C)OC(=O)/C=C/c1ccco1 (stereo not drawn)	?	0.2%	13.5%	-30.4%	-12.1%	-8.6%	.	14.5%
3	Cn1c(=O)oc2cc(S(=O)(=O)NCCC(=O)N3CCN(c4ccccc4F)CC3)ccc21	-8.1%	8.7%	.	.	.	.	9.3%	4.5%
4	C=CCc1cc(OC)ccc1OCCOCCN1CCc2ccccc2C1	?	.	-5.7%[46.1 µM]	-5.3%	.	.	2.5%	12.4%
5	CCC1=C(OC(=O)N(CC)CC)N2C(=O)OC(=NCc3ccccc3)[C@]2(C)[C@H]2C1=CC[C@H]1C(=O)N(c3ccccc3)C(=O)[C@H]12	17.3%	6.0%	.	.	-3.9%	?	3.6%	1.3%
6	Cc1ccccc1-n1nc(C)c2cc(C(=O)NCc3cccnc3)sc21	?	-35.3%	-19.6%	-8.3%	-4.3%	-2.9%	-17.5%	4.3%
7	COc1cc(/C=C(\C#N)C(=O)NC2CCCCC2)ccc1OCc1ccc(C(=O)O)cc1	-29.0%	6.6%	?	14.6%[46.1 µM]	.	.	2.0%	0.2%
8	O=c1[nH]c(CSc2nc3ccccc3o2)nc2c1cnn2-c1ccccc1	-7.2%	-12.3%	6.7%	-4.4%	6.1%	0.7%	15.8%	13.9%
9	COc1ccc(NC(=O)CN(C)Cc2c(F)cccc2Cl)cc1S(=O)(=O)N1CCCCC1	-13.4%	.	?	-17.2%	.	.	-0.5%	0.4%
10	CNc1cc(C)c(C#N)c2nc3ccccc3n12	-27.5%	13.9%	-5.2%	10.5%	.	.	-3.3%	12.7%
11	CC(C)n1c(/C=C/c2ccccc2)nc2ccccc21	15.2%	-18.7%	?	0.5%	-12.9%	-0.3%	-11.1%	-25.1%
12	Cc1ccc(NC2=CC(=O)CC(C)(C)C2)cc1F	2.6%	-0.4%	-5.1%	.	.	.	5.0%	-1.2%
13	Cc1ccccc1CC1(CO)CCCN(C(=O)CCCN2CCCCC2=O)C1 (stereo not drawn)	1.7%	-2.1%	6.2%[46.1 µM]	-4.3%[46.1 µM]	.	.	0.0%	0.9%
14	COc1ccc(NC(=O)c2ccc(NC(=O)C3CC3)cc2)cc1	6.2%	-5.0%	.	.	.	.	5.7%	-1.5%
15	C=CCOc1ccc(C2C(C#N)=C(N)N(Nc3ccccc3)C3=C2C(=O)CCC3)cc1OC (stereo not drawn)	-5.1%	10.1%	?	?	-4.8%	4.5%	7.9%	7.5%
16	CC[C@@H](C)[C@H](NC(=O)C1CCN(C(=O)[C@@H](NS(=O)(=O)c2ccc(C)cc2)C(C)C)CC1)C(=O)O	0.0%	6.8%	1.7%	?	4.8%	1.2%	10.4%	7.1%
17	CSc1cccc(NC(=O)CCCOc2ccccc2)c1	33.6%[activator]	-36.8%	21.0%	-28.6%	-6.7%	6.5%	-0.3%	-12.1%
18	O=C(CCl)N(c1ccccc1)C1CCS(=O)(=O)C1 (stereo not drawn)	?	-6.6%	?	?	0.5%	1.9%	.	-13.9%
19	CCOC(=O)c1c(NC(=O)COC(=O)c2nc(Cl)ccc2Cl)sc(C(=O)N(C)C)c1C	2.1%	.	25.0%	4.8%	.	.	-11.7%	?
20	COc1ccc(C2C3=C(CCCC3=O)Nc3ccc4ncccc4c32)cc1OC (stereo not drawn)	43.4%[activator]	.	?	0.0%	.	.	7.6%	-0.5%
21	COc1cccc(NC(=O)C2CCN(S(=O)(=O)c3ccc4c(c3)CC(C)N4C(C)=O)CC2)c1 (stereo not drawn)	-17.4%	-12.1%	.	.	.	.	-12.9%	-9.7%
22	Cc1c(C(=O)NCc2cccnc2)sc2nc(-c3ccc(F)cc3)cn12	-6.8%	-53.8%	.	.	-10.2%	7.8%	3.3%	-13.1%
23	O=C(C1CCN(S(=O)(=O)c2cc(Cl)ccc2Cl)CC1)N1CCCC1	-12.2%	-1.7%	5.1%[46.1 µM]	?	.	.	0.0%	1.1%
24	NC(=O)c1ccc(NC(=O)c2cccc3c2OCCCO3)cc1	10.6%	-0.1%	-3.7%[46.1 µM]	-11.2%	.	.	21.7%	-0.8%
25	CC1(C)C(=O)Nc2ccccc2N1C(=O)COC(=O)COc1ccc(C#N)cc1	-29.3%	5.7%	.	.	.	.	-4.1%	-1.1%

Whole records, quoted from the list. Order of values: 2A StopGo, NS1 function inh, Marburg entry inh, Lassa entry inh, Cruzain Triton, Cruzain noTriton, RE007 growth inh, SARS PLP yeast
Cc1ccccc1-n1nc(C)c2cc(C(=O)NCc3cccnc3)sc21 is listed with ?, -35.3%, -19.6%, -8.3%, -4.3%, -2.9%, -17.5%, 4.3%
CNc1cc(C)c(C#N)c2nc3ccccc3n12 is listed with -27.5%, 13.9%, -5.2%, 10.5%, ., ., -3.3%, 12.7%
Cc1ccc(NC2=CC(=O)CC(C)(C)C2)cc1F is listed with 2.6%, -0.4%, -5.1%, ., ., ., 5.0%, -1.2%
COc1ccc(NC(=O)c2ccc(NC(=O)C3CC3)cc2)cc1 is listed with 6.2%, -5.0%, ., ., ., ., 5.7%, -1.5%
COc1ccc(C2C3=C(CCCC3=O)Nc3ccc4ncccc4c32)cc1OC (stereo not drawn) is listed with 43.4%[activator], ., ?, 0.0%, ., ., 7.6%, -0.5%

The results go on:
#	Structure	2A StopGo	NS1 function inh	Marburg entry inh	Lassa entry inh	Cruzain Triton	Cruzain noTriton	RE007 growth inh	SARS PLP yeast
26	CCOc1ccc(-c2cc(-c3nc(-c4ccc(OC)c(OC)c4)no3)[nH]n2)cc1	0.0%	.	.	9.4%[46.1 µM]	1.7%	-13.8%	.	.
27	CC(=O)Nc1ccc(N/C=C/C(=O)c2ccc(Br)cc2)cc1	35.0%[activator]	10.2%	.	.	.	.	17.4%	-5.6%
28	COCCNC(=O)CSc1nc2ccccc2c2nc(C)nn12	-12.4%	-2.1%	15.3%	2.7%	5.6%	-4.3%	-8.2%	-5.2%
29	O=C(c1cc2nc(-c3ccccc3)cc(C(F)(F)F)n2n1)N1CCN2CCCC2C1 (stereo not drawn)	-23.0%	12.8%	3.2%[46.1 µM]	?	.	.	-21.2%	-6.5%
30	Cc1ccc(-n2cc3c(-c4cccc(Br)c4)nnc(C)c3n2)cc1	-24.9%	8.2%	?	-27.3%	-3.1%	-2.5%	-8.7%	2.4%
31	COc1ccc(OC)c(NC(=O)c2cc(-c3cc(C)ccc3O)n[nH]2)c1	16.9%	-1.9%	?	?	.	.	-1.5%	-0.8%
32	COc1cc2ccccc2cc1C(=O)NC(=S)Nc1cccc(C(=O)O)c1C	-3.0%	-1.3%	8.9%[46.1 µM]	3.0%	.	.	6.5%	-4.2%
33	N#Cc1nc(-c2cccs2)oc1NCc1ccc(Cl)cc1	11.6%	-19.1%	-3.2%	0.7%	16.6%	?	29.1%	5.7%
34	O=C(NCc1cccnc1)c1ccc(COc2cccc3ccccc23)o1	?	11.4%	?	-21.3%	?	2.1%	-8.3%	-2.1%
35	COc1ccc(C2=NNC(c3cccnc3)=Nc3ccccc32)cc1	-22.5%	7.8%	4.0%[46.1 µM]	?	.	.	8.2%	0.7%
36	O=C(NN1C(=O)c2ccccc2C1=O)C1C2CCCCC21 (stereo not drawn)	3.2%	-12.6%	?	?	-9.0%	-3.6%	4.3%	-5.2%
37	COc1ccc(-n2c(=O)c3c4c(sc3n(Cc3ccc(F)cc3)c2=O)CCCC4)c(OC)c1	-27.3%	.	5.5%[46.1 µM]	4.4%[46.1 µM]	-3.3%	-5.4%	.	.
38	CCOC(=O)/C(C#N)=C/Nc1ccccc1NS(=O)(=O)c1ccc(C)c(C)c1	-10.4%	-0.3%	13.3%[46.1 µM]	12.9%	.	.	-0.7%	-0.6%
39	O=C(O)CCCn1c(=O)c2cccn2c2ccc(F)cc21	0.0%	4.6%	.	.	.	.	2.2%	2.7%
40	CSCCC(NC(=O)c1ccccc1)C(=O)N/N=C(\C)c1ccccc1 (stereo not drawn)	-10.1%	0.5%	-8.9%	-2.8%	-0.8%	?	-18.5%	-2.6%
41	Fc1ccc2c(c1)C(c1ccncc1)=NNC(c1ccc(Br)cc1)=N2	-24.3%	-37.3%	-13.1%	-3.8%	1.2%	-7.5%	-10.2%	-61.8%
42	O=C(Nc1ccccc1)c1sc2cc(C(F)(F)F)cnc2c1-c1cccs1	-9.6%	-0.8%	?	-5.3%	-4.4%	-24.1%	-9.6%	-7.0%
43	COc1ccc(CCNC(=O)c2cc3cccc(OC)c3oc2=O)cc1OC	-19.4%	12.6%	.	.	.	.	2.1%	-0.9%
44	Cc1ccc2c(c1)c1ccc3c(c1n2C)C(=O)C=CC3=O	31.6µM*	-66.5%	.	.	.	.	-8.8%	-6.1%
45	CCOc1ccc2oc(C(=O)N(C)CC(=O)Nc3ccc(OCC)c(OCC)c3)c(C)c2c1	5.4%	.	-24.4%	-10.7%[46.1 µM]	.	.	-5.7%	-0.6%
46	Cc1oc2ccc(OCc3ccccc3F)cc2c1C(=O)O	4.2%	-38.0%	42.5%	?	4.3%	?	14.1%	-10.2%
47	COCCN(C(=S)Nc1ccc(OC)c(Cl)c1)C1CCN(C(C)C)CC1	-2.3%	.	?	-12.2%	.	.	-17.4%	2.0%
48	O=C(NNC(=S)NC1CCCCC1)c1cccs1	0.0%	2.51µM*	0.7%	5.1%	1.3%	-4.9%	18.3%	?
